# NPR1 antag: blocks ANP-stimulated signaling of human Npr1 receptor; P16066; HEK293 hNpr1 GloSensor cGMP, ANP-stimulated luminescence; Potency, µM (series often up to 46.3 µM), without a hit: top-dose activity change, negative = inhibition, most hits filed as inhibitors; 76,000 tested, 1.6% active; active = well fitted inhibition curve with a large enough effect; inconclusive = small, poorly fitted or top-dose-only effect; inactive = no such curve, though single readings can be large or run the other way;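 note: nearly all actives have a fitted effect of over 60% in size; nearly all hits also lower the signal before the agonist is added; a reference antagonist and vehicle were the controls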
# Target sequence (P16066 whole entry, looked up): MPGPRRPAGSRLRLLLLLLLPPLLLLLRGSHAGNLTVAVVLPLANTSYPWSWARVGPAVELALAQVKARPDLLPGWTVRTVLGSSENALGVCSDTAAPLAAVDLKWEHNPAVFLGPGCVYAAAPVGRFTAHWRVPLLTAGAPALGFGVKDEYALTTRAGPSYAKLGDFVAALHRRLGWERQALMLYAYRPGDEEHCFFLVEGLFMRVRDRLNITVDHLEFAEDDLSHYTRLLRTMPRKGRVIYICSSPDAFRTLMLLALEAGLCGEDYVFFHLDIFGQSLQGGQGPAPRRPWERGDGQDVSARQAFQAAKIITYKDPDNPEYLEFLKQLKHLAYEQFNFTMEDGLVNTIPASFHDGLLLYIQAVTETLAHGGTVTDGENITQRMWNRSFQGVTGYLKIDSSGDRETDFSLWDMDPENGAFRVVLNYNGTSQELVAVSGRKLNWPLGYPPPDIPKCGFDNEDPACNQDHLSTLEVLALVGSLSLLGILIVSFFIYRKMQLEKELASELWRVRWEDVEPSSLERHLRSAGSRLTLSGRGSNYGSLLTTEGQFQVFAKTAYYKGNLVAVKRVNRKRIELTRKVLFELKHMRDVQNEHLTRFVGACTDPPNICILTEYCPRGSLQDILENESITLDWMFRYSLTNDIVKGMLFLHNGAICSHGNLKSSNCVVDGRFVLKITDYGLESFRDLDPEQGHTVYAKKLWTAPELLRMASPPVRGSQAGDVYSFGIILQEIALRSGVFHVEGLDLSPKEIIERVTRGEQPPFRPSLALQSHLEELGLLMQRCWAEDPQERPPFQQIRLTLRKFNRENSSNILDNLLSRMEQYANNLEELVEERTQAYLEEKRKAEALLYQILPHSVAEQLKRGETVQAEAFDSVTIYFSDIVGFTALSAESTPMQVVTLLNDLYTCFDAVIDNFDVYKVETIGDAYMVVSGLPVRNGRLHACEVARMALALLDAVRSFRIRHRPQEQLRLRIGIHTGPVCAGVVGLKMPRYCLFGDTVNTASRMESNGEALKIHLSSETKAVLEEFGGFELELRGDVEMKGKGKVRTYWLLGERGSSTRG
#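 Compound pre-incubated 30 min at room temperature on GloSensor-loaded HEK293 cells stably carrying hNpr1 and the pGS-40F cGMP biosensor. Stimulation uses hNppA at 0.1 nM final; luminescence is taken at baseline and 20 min post-agonist.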
# Starred values were filed as active, the others as inactive; ? = inconclusive; [ ] = remark or other dose. % is set by controls: 0 for no effect and ±100 for the full control effect; potency is the fitted concentration of half-maximal effect.
NPR1 antag	mol
2%[70.6 µM]	C[S+](=O)([O-])Nc1ccc(C(O)[C@H]2COCC(=O)N2Cc2ccc(F)cc2)cc1 (stereo partly specified)
-12%	Cc1nc2c(OCC(=O)OC(C)(C)C)cccn2c(=O)c1-c1cc(C)n(-c2cccc(F)c2)n1
7%	Cc1noc([C@@H]2CN(Cc3ccccc3OC(F)(F)F)C[C@H]2CO)n1
2%	NC1CCC(n2cc(C(=O)NCc3noc(-c4ccccc4)n3)nn2)CC1 (stereo unspecified)
0%	O=C(COc1ccccc1)NC1CCN(c2cc(C(F)(F)F)ncn2)CC1
2%	CCOc1ccc(-c2nnc(CCC(=O)NCCc3ccccc3)c(=O)[nH]2)cc1
5%	COC1C(=O)N(CC2CC2)C12CCN(C(=O)C(C)C)CC2 (stereo unspecified)
1%	Cc1c(CC(=O)NC2CCOCC2)c2c(n1CCc1ccccc1)CCCC2=O
-8%	O=C(NCc1ccc(C(F)(F)F)cc1)C1CN(c2ccc(Cl)cc2)C(=O)N1 (stereo unspecified)
-1%	OC[C@@H]1CN(Cc2cccc3[nH]ccc23)C[C@H]1c1ccncc1
-12%	Cc1nn(C)c(C)c1CN1C[C@@H](COCC2CC2)[C@H](c2ccccn2)C1
?	CS(=O)(=O)N1CCC(OC2CCN(C(=O)Cc3c[nH]c4ccccc34)CC2)CC1
-15%	N#Cc1ccc(-c2nc(C3CC(=O)N(c4ccc(Cl)cc4)C3)no2)cc1 (stereo unspecified)
3%	CNC(=O)[C@H]1C[C@H](Oc2ccccc2)CN1C(=O)Nc1cccc(C)c1
-11%	O=C(N[C@H]1CCN2C(=O)c3cc(-c4ccc5c(c4)OCO5)ccc3NC(=O)[C@H]12)c1cccc(F)c1

# Next section, starting with the last five of the part before.
NPR1 antag	mol
-12%	Cc1nn(C)c(C)c1CN1C[C@@H](COCC2CC2)[C@H](c2ccccn2)C1
?	CS(=O)(=O)N1CCC(OC2CCN(C(=O)Cc3c[nH]c4ccccc34)CC2)CC1
-15%	N#Cc1ccc(-c2nc(C3CC(=O)N(c4ccc(Cl)cc4)C3)no2)cc1 (stereo unspecified)
3%	CNC(=O)[C@H]1C[C@H](Oc2ccccc2)CN1C(=O)Nc1cccc(C)c1
-11%	O=C(N[C@H]1CCN2C(=O)c3cc(-c4ccc5c(c4)OCO5)ccc3NC(=O)[C@H]12)c1cccc(F)c1
4%	CN1CCCCCCN(S(=O)(=O)N(C)C)[C@H]2CCC[C@H]2C1=O
-15%	Cc1ccccc1CC(=O)N1CCCC(c2noc(COc3ccccc3)n2)C1 (stereo unspecified)
0%	Cc1ccc(-c2nnc(C3CN(C(=O)c4ccc(C)c(F)c4)CC34CCOCC4)o2)cc1 (stereo unspecified)
?	COc1ccc(-c2cc(N3CCC(NC(=O)COc4ccc(F)cc4)CC3)n[nH]2)cc1
4%	Cn1nccc1C(=O)N1CCC(c2nn(C)c3c2COCC3)CC1
-13%	O=C(Nc1ccc2c(c1)OCO2)C1CCCN(c2cnn(Cc3ccccc3)c(=O)c2)C1 (stereo unspecified)
3%	CCn1cc(S(=O)(=O)N2CCC3(CC2)N(CC2CC2)C(=O)CS3=O)cn1 (stereo unspecified)
-1%	O=C1CS(=O)C2(CCNCC2)N1Cc1cccc(F)c1 (stereo unspecified)
?	COC(=O)C1=C(C)N=C2SC=C(CC(=O)N3CCCC(C(N)=O)C3)N2C1c1cccc(Cl)c1 (stereo unspecified)
0%	CCS(=O)(=O)N1CCC[C@H]1C(=O)N1CCCCCCNC(=O)CC1
?	CC(C)c1noc(-c2cn(C3CCN(C(=O)c4cccc(F)c4)C3)nn2)n1 (stereo unspecified)
1.8µM*	OCC1(CCOc2ccccc2)CCCN(c2ncnc3sccc23)C1 (stereo unspecified)
-3%	CN(C)CCN(C)C(=O)c1cc(-c2ccccc2F)cc2c1OCCN2Cc1cccnc1
2%	COc1ccc(-c2nc(-c3nnn4c3COC(c3ccc(Cl)cc3)C4)no2)cc1F (stereo unspecified)
4%[70.6 µM]	CC(C)NC(=O)N[C@H]1C[C@H]2C(=O)NC[C@@H](CCC(=O)NCc3ccccc3)N2C1

# More records
NPR1 antag	mol
-4%	CCn1ccc2sc(C)c(C(=O)NCc3ccc(Br)cc3)c2c1=O
-20%	O=C(CCC1CCN(S(=O)(=O)c2ccccc2)CC1)NC1CCCCCC1
-1%	NC(=O)[C@@H]1CN(C(=O)c2ccnnc2)C[C@H]1COc1ccccc1
1%	COc1ccc(C(=O)N2CCN(C(C(=O)O)c3cccc(O)c3)CC2)cc1 (stereo unspecified)
-9%	O=C(Nc1nn(Cc2ccccc2)c2cccc(N3CCOCC3)c12)c1cnccn1
7%	O=C(Cc1ccccc1)N1CCC2(CCCN(C3CCOCC3)C2=O)C1 (stereo unspecified)
1%	Cc1ccc(C(=O)N2C(C(=O)N3CCOCC3)COC23CCN(C(=O)c2ccccc2C)CC3)cc1 (stereo unspecified)
4%	Cc1ccc(S(=O)(=O)N2CCCC(CCC(=O)NCc3cccc(F)c3)C2)cc1 (stereo unspecified)
4%	Cn1nc(C2CCN(C(=O)c3ccc(F)cc3)CC2)c2c1CCOC2
-1%	COc1cc(CNCCc2ccccc2C)ccc1OCC(O)CN1CCOCC1 (stereo unspecified)
-1%	CC(=O)N1CCc2[nH]cnc2C12CCN(C(=O)CCn1nnnc1C)CC2
2%	O=C(Cc1cccc(F)c1)N1CCCN(C(=O)C2CC2)c2ccccc21
-21%	CC1(CCCCc2ccccc2)COc2ccc(C(=O)N3CC[S+](=O)([O-])CC3)cc2N1 (stereo unspecified)
7.1µM*	Cc1cc(CNC(=O)c2cc(C(C)C)nn2C)c2[nH]c(C)c(C)c2c1
3%	CCNC(=O)N1CCOc2ccc(CCC(=O)NCc3nc4ccccc4n3C)cc2C1

# Carrying on:
NPR1 antag	mol
4%	Cn1cccc1C(=O)N1CCC(Oc2ccccc2-c2nc(C3CCOCC3)no2)C1 (stereo unspecified)
0%	COCCOC1CCN(C(=O)CCc2ccccc2)CC1
-1%	O=C(c1ccc(Cl)nc1)N1CCn2c(nn(-c3ccc(C(F)(F)F)cc3)c2=O)C1
-2%[70.6 µM]	Cc1nnc(-c2cc(N3CCN(c4ccccn4)CC3)ccn2)n1-c1ccccc1
6%	CN(C)c1cc(N2CCCC(NC(=O)c3cccnc3)C2)ncn1 (stereo unspecified)
-12%	CCN1C(=O)C2(CCN(S(=O)(=O)Cc3ccc(Cl)cc3)CC2)c2ccccc21
3%	Cc1ccc(-c2noc([C@@H](N)CCCCN)n2)nn1
1%[70.6 µM]	CN(C)[C@@H]1CO[C@H](CNC(=O)N2CCOCC2)[C@H]1O
-5%	Cc1cccc(C(=O)N2[C@@H]3CC[C@H]2CC(NC(=O)c2cnc(C)cn2)C3)c1 (stereo partly specified)
-26%	COc1cccc(CN2CCc3c(cc(C(=O)Nc4ccccc4)n3C)C2)c1
1%	COC(C)c1ccc(-c2cc(C(=O)O)cc(S(=O)(=O)NC(C)C)c2)cc1 (stereo unspecified)
-16%	CN(CCCN1c2ccccc2CCc2ccccc21)C(=O)[C@H]1CCC[C@@H](O)C1
2%	CC1CCN(CC2CCCN(S(=O)(=O)c3ccc(F)cc3)CC2)CC1 (stereo unspecified)
-1%	COc1ccc(S(=O)(=O)N2CCn3nnc(CCC(=O)NC4CC4)c3C2)cc1
-21%	CCOc1ccc(S(=O)(=O)N2CCC3(CC2)CN(C)CC3COC)cc1 (stereo unspecified)

# (cont.)
NPR1 antag	mol
2%	Cc1ncoc1C(=O)N1CC[C@H]2C(=O)NCCCCCCN(Cc3ccncc3)[C@@H]2C1
4%	COc1ccc(OC2CCN(C(C)=O)CC2)c(C(=O)NC(C)c2cn(C)nc2C)c1 (stereo unspecified)
4%	COc1ccc(C(=O)NC2CCN(c3cnn(CC4CC4)c(=O)c3)CC2)cc1F
7%	COc1cccc(CN2CCNC(=O)C2CC(=O)N2CCNC(=O)C2)c1OC (stereo unspecified)
4%	OC[C@@H]1O[C@H](CN(Cc2cccc(Cl)c2)Cc2cccc(Cl)c2)[C@H](N2CCN(c3ccccn3)CC2)[C@@H]1O
-14%	O=c1[nH]c(N2CCc3ccccc3C2)nc2c1CCN(Cc1ccccc1)CC2
-1%	CCn1ncc(N2CCCC(CC(=O)N3CCN(c4ccccc4)CC3)C2)cc1=O (stereo unspecified)
?	COc1ccc(F)cc1-c1cccc(COc2ccc3c(cnn3CC[S+](C)(=O)[O-])c2)c1
-1%	COc1ccc(OC2CCN(C(C)=O)CC2)c(C(=O)NCCc2c(C)n[nH]c2C)c1
0%	CCC(=O)N1CCCC(Cc2nc(C3CCOCC3)no2)C1 (stereo unspecified)
?	O=C(Cc1ccc(Cl)cc1)NC1CCN(c2cc(-c3ccc(F)cc3)[nH]n2)C1 (stereo unspecified)
-2%	COc1ccc(OC)c(CNC(=O)C2CCCCC(=O)N2)c1 (stereo unspecified)
10%	O=C(C1CCOCC1)N1CCCC(CCc2ccc(F)c(F)c2)C1 (stereo unspecified)
-14%	COc1ccc(Cl)cc1NC(=O)CC1CCCN(c2cnn(C)c(=O)c2)C1 (stereo unspecified)
-15%	Cc1ccc(F)cc1S(=O)(=O)N1CCCC(Cn2c(C3CC3)nc3cccnc32)C1 (stereo unspecified)

# Continuation.
NPR1 antag	mol
-15%	CNc1ccc(OC2CCN(C(=O)NCCc3ccccc3)CC2)nc1
-4%	O=c1n(CC2CC2)nc2n1CCN(S(=O)(=O)c1ccc(Cl)s1)CC2
-1%	Cn1cc(C(=O)NC2CC(=O)N(Cc3cccc4ccccc34)C2)ccc1=O (stereo unspecified)
2%	C[S+](=O)([O-])N1CCc2nc(-c3ccc(Cl)cc3)nc(-c3ccccc3)c2C1
2%	COc1nc2c(cc1CNC(=O)c1c(C)cccc1C)C(=O)N(C1CCCC1)C2
-7%[70.6 µM]	CCCCCC(=O)N1CC[C@@H](CC(=O)NCc2cccs2)[C@@H](CC)C1
-1%[70.6 µM]	COc1ccc2c(c1)CN(C1COC1)CC[C@H]1COC(=O)N21
0%[70.6 µM]	CN(C)Cc1cc(C[C@@H]2C[C@H](NC(=O)COc3ccccc3)C2(C)C)no1
4%	O=C(Cn1nc2n(c1=O)CCCC2)Nc1cccc(F)c1
-4%[70.6 µM]	COCCN1CCOC2(CCN(Cc3ccc(C(C)C)cc3)CC2)C1=O
4%	COCC1CN(C(C)=O)CC12CCN(Cc1cc(F)c(F)cc1F)CC2 (stereo unspecified)
5%	CNC(=O)[C@@H]1CN(C(=O)c2ccc(F)c(Cl)c2)C[C@H]1CO
8%	Cn1nc(C2CCN(C(=O)C3CCC3)CC2)c2c1CCOC2
0%[70.6 µM]	O=C(Cc1ccccc1)N1CC[C@H]2COC(=O)N2c2cc(F)ccc2C1
-30%	O=C(CCC1CCCN(S(=O)(=O)c2cccc(F)c2)C1)NCC1CC1 (stereo unspecified)

# (continued)
NPR1 antag	mol
-14%	COc1cc(OC)cc(C(=O)N2CCc3cn(C)c4cccc(c34)C2)c1
?	O=C(NCc1ccc(F)cc1F)c1cc2n(n1)CC(c1ccc(Cl)cc1)OC2 (stereo unspecified)
-2%	COCc1nc(C2CCN(C(=O)c3ccnn3C)C2)no1 (stereo unspecified)
1%	Cc1nc(-c2ccccc2OC2CN(S(=O)(=O)Cc3ccccc3)C2)no1
12%	Cc1ccc([S+](=O)([O-])N2CCCC(c3nn(-c4ccccc4)c(=O)[nH]3)C2)cc1 (stereo unspecified)
-11%	CCCN(C)c1nccnc1OC1CCN(C(=O)C2CCCCC2)C1 (stereo unspecified)
2%	Cc1cccc(NC(=O)N2CCC(CCNC(=O)Cc3ccccc3F)CC2)c1
0%	COC1C(=O)N(CC2CC2)C12CCN(C(=O)COc1ccc(F)cc1)CC2 (stereo unspecified)
4%[70.6 µM]	c1cncc(CN2CCC[C@H]2c2nc(-c3ccc(-n4ccnc4)nc3)no2)c1
?	CC(C)(C)c1noc(-c2nnn3c2COC(c2ccc(F)cc2)C3)n1 (stereo unspecified)
-20%	COc1cc(Nc2ncncc2-c2nc(-c3ccccc3)no2)cc(OC)c1OC
8%	Cn1cc(CNC(=O)c2ccc(S(=O)(=O)N[C@@H]3CCNC3)cc2)cn1
1%	COCCN1C(=O)CS(=O)(=O)C12CCN(C(=O)c1sccc1C)CC2
-12%[70.6 µM]	c1cc(-c2noc([C@@H]3CCCN3Cc3ncc[nH]3)n2)cc(N2CCOCC2)n1
1%	Cn1nccc1C(=O)N[C@@H]1CN(Cc2ccccc2)C[C@H]1CO

# Next section
NPR1 antag	mol
-3%	CC(C)NC(=O)[C@@H]1C[C@@H](NC(=O)c2ccon2)CN1Cc1cccnc1N
3%	CCC(C)NC(=O)C1COC2(CCN(C(=O)c3cccc(F)c3)CC2)N1C(=O)c1cccc(OC)c1 (stereo unspecified)
-1%	CC(=O)N1CCCN(c2ncnc3c2CN(c2cccc(C)c2)C(=O)N(C)C3)CC1
0%	O=C(C1CCN(c2cn[nH]c(=O)c2)C1)N1CCCC1 (stereo unspecified)

# Molecules listed so far with a thiophene ring, fused or not, in the order listed:
NPR1 antag	mol
1.8µM*	OCC1(CCOc2ccccc2)CCCN(c2ncnc3sccc23)C1 (stereo unspecified)
-4%	CCn1ccc2sc(C)c(C(=O)NCc3ccc(Br)cc3)c2c1=O
-4%	O=c1n(CC2CC2)nc2n1CCN(S(=O)(=O)c1ccc(Cl)s1)CC2
-7%[70.6 µM]	CCCCCC(=O)N1CC[C@@H](CC(=O)NCc2cccs2)[C@@H](CC)C1
1%	COCCN1C(=O)CS(=O)(=O)C12CCN(C(=O)c1sccc1C)CC2

# NPR1 antag, entries above that show a hit
NPR1 antag	mol
1.8µM*	OCC1(CCOc2ccccc2)CCCN(c2ncnc3sccc23)C1 (stereo unspecified)
7.1µM*	Cc1cc(CNC(=O)c2cc(C(C)C)nn2C)c2[nH]c(C)c(C)c2c1

# This is a subset; the hit share may differ from the screen's.
